# From PubChem BioAssay
# miR-21 reporter = miR-21 reporter, rising signal; HeLa miR-21 FLuc reporter, luciferase, 48 h; 340,000 tested, under 10 active; Potency, µM (doses to about 38.3 µM), for inactives: at the top dose reporter change, positive = more light; active = well fitted rising curve with a large enough effect; inconclusive = small, poorly fitted or top-dose-only effect; inactive = no such curve, though single readings can be large or run the other way;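 note: % of control where 0% means no effect; miR-21 action dims this reporter so a rising signal means less miR-21 action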
#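 Luminescence from a firefly luciferase reporter carrying a miR-21 binding site downstream, stably expressed under a CMV promoter in HeLa cells that make miR-21 endogenously, reports miRNA modulation after 48 h compound exposure up to approximately 40uM final.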
# Starred values were filed as active, the others as inactive; ? = inconclusive. This is a subset; the hit share may differ from the screen's.
miR-21 reporter,smiles
5%,Cn1c(=O)c2c(-c3ccc(Cl)cc3)n(Cc3ccc(Cl)cc3)cc2n(C)c1=O
3%,COCCCNC(=O)CCc1c(C)nc2cc(-c3ccc(Cl)cc3)nn2c1C
?,Cc1cccc(Cn2c(SCc3ccc(C(=O)NC4CCCC4)cc3)nc3cccnc32)c1
10%,COc1cc2[nH]c(=O)n(Cc3ccc(C(=O)NCc4ccc(C)cc4)cc3)c(=O)c2cc1OC
3%,O=C(NCc1ccccc1)c1cccn1-c1nnc(N2CCCCC2)s1
27%,CCN(CC)c1cc(C)c2cc(NC(=O)/C=C/c3ccccc3Cl)ccc2n1
1%,COc1ccc(CCNC(=O)Cn2c(=O)n(-c3ccccc3)c(=O)c3c(C)c(C)sc32)cc1OC
-41%,CC(C)NC(=O)c1ccc2c(c1)nc1n2CCCCC1
0%,COC(=O)c1c(-c2ccc(Cl)cc2)noc1N1CCN(c2ccc(OC)cc2)CC1
1%,Cc1cc(C)cc(Oc2nc3c(C)cccn3c(=O)c2/C=C(\C#N)c2nc3ccccc3s2)c1
27%,CCOc1ccc(C(=O)c2cn(Cc3ccccc3)c3c(F)cc(F)cc3c2=O)cc1
23%,COc1cccc(C(=O)Nc2nc3ccc(S(=O)(=O)N4CCCC4)cc3s2)c1
0%,CCOc1ccc(NC(=O)CCn2cnc3onc(-c4ccc(F)cc4)c3c2=O)cc1
0%,CCOC(=O)c1c(C)n(-c2ccccc2)c2ccc(OC(=O)c3ccccc3NC(=O)C(C)C)cc12
0%,COc1ccc(CCNC(=O)Cc2c(C)c3cc4c(C)coc4cc3oc2=O)cc1OC
0%,CCOC(=O)c1c(S(=O)(=O)N2CCC(C(=O)Nc3ccc(C)c(Cl)c3)CC2)c(C)n(C)c1C
-57%,Cc1cccc(NC(=O)c2sc3cccc(Cl)c3c2Cl)c1
-9%,COc1ccccc1NC(=O)C1=C(C)Nc2nc(SCc3ccccc3F)nn2C1c1ccncc1 (stereo not drawn)
-10%,COCCCNC(=O)c1ccc(Cn2c(=O)c3ccccc3n(CC(=O)Nc3c(C)cccc3C)c2=O)cc1
-18%,CCOCCCNC(=O)c1[nH]c2cc(C)ccc2c1Sc1ccc(Cl)cc1
-5%,COc1cc(OC)c(NC(=O)c2cn(C)c(=O)c3cc(OC)c(OC)cc23)cc1Cl
-23%,CCOc1ccc(NC(=O)CC2C(=O)OCCN2CC)cc1 (stereo not drawn)
0%,O=C(CSCc1cnn(-c2ccccc2)c1-n1cccc1)Nc1ccc(F)cc1F
-9%,CCOc1ccc(NC(=O)c2oc3ccccc3c2NC(=O)C(C)(C)C)cc1
-6%,COc1ccc(C2(Nc3cccc(C(=O)O)c3C)C(=O)c3ccccc3C2=O)cc1
4%,CCOC(=O)c1c(C)n(-c2ccccc2)c2ccc(OC(=O)c3ccccc3)cc12
-13%,COc1ccc(-c2nc3ccccc3o2)cc1NC(=O)c1cccnc1
-30%,COc1ccccc1NC(=O)C(=O)c1cc(C)n(-c2ccccc2F)c1C
1%,Cc1ccc(C(=O)c2cn(Cc3ccccc3F)c3cc4c(cc3c2=O)OCO4)cc1
?,COc1ccc(-c2nc(CSCC(=O)NCCc3ccc(OC)c(OC)c3)c(C)o2)cc1
?,Cc1sc(-n2cccc2)c(C(C)NC(=O)Nc2cccc(C(F)(F)F)c2)c1C (stereo not drawn)
-6%,Cc1csc2nc(COc3ccc(NC(=O)COc4ccccc4)cc3)cc(=O)n12
-7%,CCOc1ccc(-c2nnc(SCC(=O)c3ccc(F)cc3)n2-c2ccccc2)cc1
4%,O=C(c1ccccc1Br)N(Cc1ccco1)C1CCS(=O)(=O)C1 (stereo not drawn)
-3%,CCOC(=O)c1ccc(NC(=O)CCn2cnnn2)cc1
1%,Cn1nnnc1SCCCNCc1ccccc1OCc1ccccc1F
4%,CCn1cc(C(=O)NCCOC)c(=O)c2cc(S(=O)(=O)N3CCOCC3)ccc21
-2%,Cc1cc(C)cc(NC(=O)CSc2cc(C)[nH]c(=O)n2)c1
-24%,CCOC(=O)c1cnc2c(ccc3ccccc32)c1Nc1ccc(C(C)=O)cc1
-5%,COc1cc2c(cc1OC)C(c1ccc(Cl)cc1)N(c1cccc(C#N)c1)C(=O)C2 (stereo not drawn)
-5%,Cc1ccc(CNC(=O)C2CCN(S(=O)(=O)c3c(C)noc3/C=C/c3c(C)cc(C)cc3C)CC2)cc1
3%,CCOC(=O)c1ccc(NC(=O)CN2C(=O)c3cccnc3Oc3ccc(Cl)cc32)cc1
-2%,O=C(Nc1c(-c2ccc(F)cc2)nc2ccccn12)c1ccccc1F
7%,O=C(CN1C(=O)COc2ccc(S(=O)(=O)N3CCCCCC3)cc21)Nc1cccc(Cl)c1
2%,CCOC(=O)c1c(C)oc2nc(C)nc(NCCCN3CCN(c4cccc(C)c4)C(C)C3)c12 (stereo not drawn)
-4%,Cc1ccc(NC(=O)CSCn2nnc3c(=O)[nH]c(Cc4ccc(F)cc4)nc32)c(C)c1
5%,CCOC(=O)c1sc2ncn(CC(=O)Nc3ccc(C)cc3Br)c(=O)c2c1C
-2%,Cc1ccccc1OCc1ccc(-c2nc(C#N)c(N3CCN(c4ccccc4)CC3)o2)o1
-7%,CN(Cc1ccccc1)C(=O)c1cc2c(=O)n(C)c3ccccc3c2s1
15%,CCn1cc2nc(SCC(=O)Nc3ccc(C)cc3)n(Cc3ccc(C)cc3)c(=O)c2n1
24%,Cc1ccc(C)c(NC(=O)CSc2cn(CC(=O)N3CCCCC3)c3ccccc23)c1
-24%,COc1cccc(-n2c(=O)c3cc(OC)c(OC)cc3n(CC(=O)Nc3ccc(F)cc3)c2=O)c1
-1%,Cc1cc(C)c2c(=O)cc(C(=O)Nc3sc4c(c3C#N)CCCC4)oc2c1
-6%,Cc1cc(C)c2c(=O)nc(SCc3ccccc3C)n(C3CC3)c2n1
24%,Cc1ccc(C2c3[nH]c4ccccc4c3CCN2C(=O)CSCc2ccc(F)cc2)cc1 (stereo not drawn)
-33%,COc1cccc(/C=C/c2nc(C#N)c(NC3CCCCC3)o2)c1
-5%,CCCN(CCC)C(=O)C1CCCN(c2ncnc3onc(-c4ccc(F)cc4)c23)C1 (stereo not drawn)
0%,COc1ccc(S(=O)(=O)c2cn(CC(=O)Nc3ccccc3)c3ccc(Cl)cc3c2=O)cc1
-4%,COc1ccc(-n2ncc(C(=O)N3CCOCC3)c2C2CCN(C(=O)OC(C)(C)C)CC2)cc1
-11%,Cc1ccc2occ(CC(=O)Nc3nnc(C(C)C)s3)c2c1

# Going on with the list.
miR-21 reporter,smiles
9%,COc1ccccc1N1CCN(C(c2ccc(Cl)cc2)c2nnc(-c3cccc(F)c3)o2)CC1 (stereo not drawn)
-9%,CCCCOc1cccc(NC(=O)CSc2nnc(C)s2)c1
-31%,Oc1ccc(-c2nc3ccccn3c2Nc2ccc3c(c2)OCCO3)cc1
0%,COc1ccc(-c2nc(SCC(=O)NCc3nc4ccccc4n3C)n3[nH]c(=O)cc3n2)cc1
-33%,Cc1ccc(NC2=C(c3ccc(C(F)(F)F)cc3)C(=O)c3ccccc32)cc1C
0%,CCN(C(=O)Cn1c(C(=O)OC)cc2sc(Cl)cc21)c1cccc(C)c1
6%,Cc1ccc(Nc2c(-c3ccccc3O)nc3cc(C)ccn23)cc1
6%,CCS(=O)(=O)N1CCc2cc(C(=O)Nc3cccc(C(C)=O)c3)ccc21
21%,C=Cc1ccc(Cn2c(C(=O)O)c(CNCc3cccs3)c3ccc(C)cc32)cc1
-41%,Cc1ccc2onc(CC(=O)N(C)c3ccccc3)c2c1
-12%,Cc1ccc(C)c(Oc2nc3c(c(=O)n(C)c(=O)n3C)n2Cc2ccccc2)c1
4%,CCc1c(C)nc2nncn2c1Nc1ccc(C)c(F)c1
-1%,Cc1ccc(Nc2nc(C)nc(N)c2S(=O)(=O)c2ccccc2)cc1
2%,Cc1ccc(-c2cn3c(n2)sc2cc(C(=O)NCCC4=CCCCC4)ccc23)cc1
-2%,Cc1ccc(CNC(=O)c2ccc(CSCc3cccc(C)c3)o2)cc1
0%,COc1cc(NC(=O)Cn2nc3c(cc2=O)CC(C)CC3)cc(OC)c1OC (stereo not drawn)
5%,COc1ccc(Cc2c(C)nn(-c3nc(C)c(C(=O)Nc4cccc(C(C)=O)c4)s3)c2C)cc1
-1%,CCc1cc2c(cc3c(=O)n(CC(=O)NCCc4ccc(OC)cc4OC)nc(CC)n32)s1
-1%,O=C(NC(=O)c1cccc(F)c1)Nc1ccc(-c2cc(C(F)(F)F)nn2-c2ccccc2)cc1
2%,COc1ccc(N(C)S(=O)(=O)c2ccc3c(c2)n(C)c(=O)c(=O)n3C)cc1

# 2 of these compounds in a different format:
Molecule	miR-21 reporter
Cc1ccc(Nc2nc(C)nc(N)c2S(=O)(=O)c2ccccc2)cc1	-1%
Cc1ccc(-c2cn3c(n2)sc2cc(C(=O)NCCC4=CCCCC4)ccc23)cc1	2%

# Continuation.
miR-21 reporter,smiles
6%,Cc1nn(CC(=O)NCc2cccc(F)c2)c(=O)c2c(C)n(-c3ccc(Cl)cc3)nc12
-14%,Cc1c(Cl)cccc1N1C(N)=C(C#N)C(c2cc(CN3CCOCC3)cs2)C2=C1CCCC2=O (stereo not drawn)
-2%,COc1ccc(C(=O)c2oc3ccccc3c2NC(=O)COc2c(C)cc(C)cc2C)cc1
11%,O=C(CN1CCN(S(=O)(=O)c2cc(Cl)ccc2Cl)CC1)Nc1cccc(F)c1
5%,COc1ccc(NC(=O)CSc2c(C(C)C)cnc3c2c(=O)n(C)c(=O)n3C)c(OC)c1
6%,COc1ccc(OC)c(NC(=O)CSC2=Nc3ccccc3C3=NC(CC(=O)NCc4ccc5c(c4)OCO5)C(=O)N23)c1 (stereo not drawn)
3%,Cc1ccc(-c2nc(S(=O)(=O)c3ccc(F)cc3)c(N3CCN(c4ccccc4)CC3)o2)cc1
19%,Cc1c(C(=O)Nc2cccc(C(F)(F)F)c2)oc2ccc(S(=O)(=O)N(C)C3CCCCC3)cc12
13%,CCOc1ccccc1N1CC(c2nc3ccccc3n2CCCOc2ccccc2)CC1=O (stereo not drawn)
9%,CCN(CC)CC(C)CNC(=O)c1cc(-c2ccc(Br)s2)nc2ccccc12 (stereo not drawn)
5%,CCn1c(CN2CCCCC2)nc2cc(NC(=O)COc3cc(C)ccc3C(C)C)ccc21
1%,CCOC(=O)N1CCc2c(sc3c2c(=O)n(CCc2ccccc2)c(=O)n3Cc2ccc(C)cc2C)C1
2%,CCOC(=O)c1c(C)oc2nc(C)nc(NCc3cccc(Cl)c3)c12
-1%,CC(=O)N1CCc2c(sc3c2c(=O)n(-c2ccccc2)c(=O)n3CC(=O)Nc2ccccc2)C1
-5%,O=c1cc(-c2ccccc2)c2cc(Cl)c3c(c2o1)CN(Cc1ccccc1)CO3
20%,Cc1c(C(=O)N2CCCC2)oc2c1-c1nn(CC(=O)NCc3ccccc3Br)cc1CC2
0%,Cc1nc2c(c(C)c1CCC(=O)N1CCN(c3ccccc3)CC1)c(=O)n(C)c(=O)n2C
2%,Cc1cc(C)cc(NS(=O)(=O)c2ccc3[nH]cc(C(=O)N4CCCCCC4)c(=O)c3c2)c1
14%,CCOC(=O)c1cc(-c2ccccc2)n(-c2cccc(C(=O)Nc3ccc(OCC)cc3)c2)c1C
4%,CCOC(=O)c1ccc(N2C(=O)c3n[nH]c(C)c3C2c2ccc(CC)cc2)cc1 (stereo not drawn)
-24%,COc1ccccc1CNc1nccn(-c2ccc(F)cc2)c1=O
-3%,CCOc1ccc(NC(=O)CSc2nnc(CC)c(CC)n2)cc1
9%,CCOc1ccccc1NS(=O)(=O)c1c(C(=O)OC)sc2cccc(F)c12
-21%,N#Cc1nc(/C=C/c2ccc(F)cc2)oc1N1CCCCC1
13%,C=Cc1ccc(CN2C(=O)N(c3ccc(CC)cc3)S(=O)(=O)c3ccccc32)cc1
-3%,Cc1cc(=O)[nH]c2nnc(SCC(=O)Nc3ccc(F)cc3F)n12
4%,COc1ccc(N2CCN(C(=O)C3CCN(S(=O)(=O)c4cnc[nH]4)CC3)CC2)cc1
-3%,Cc1c(Cl)cccc1NC(=O)Nc1nnc(N2CCCCCC2)s1
-1%,COc1ccc(CCN2C(=O)c3oc4cc(C)cc(C)c4c(=O)c3C2c2ccccc2F)cc1OC (stereo not drawn)
-42%,CC(=O)c1ccc(NC(=O)CN2C(=O)CCc3ccccc32)cc1
-5%,CCn1c(=O)n(CC2CCC(C(=O)NC(C)C)CC2)c(=O)c2sccc21 (stereo not drawn)
1%,CCC(C(=O)OC)n1nnc2sc(-c3ccccc3)cc2c1=O (stereo not drawn)
-3%,Cc1c(C(=O)N2CCC(c3nc4ccccc4s3)CC2)oc2cc(Br)ccc12
20%,OCc1cnc(SCc2ccc(F)cc2)n1Cc1ccc(F)cc1
2%,N#Cc1ccc(NC(=O)COCc2cc(-c3ccco3)on2)cc1

# Some of the entries so far, with each value named.
C=Cc1ccc(CN2C(=O)N(c3ccc(CC)cc3)S(=O)(=O)c3ccccc32)cc1
  miR-21 reporter: 13%

Cc1cc(=O)[nH]c2nnc(SCC(=O)Nc3ccc(F)cc3F)n12
  miR-21 reporter: -3%

COc1ccc(N2CCN(C(=O)C3CCN(S(=O)(=O)c4cnc[nH]4)CC3)CC2)cc1
  miR-21 reporter: 4%

Cc1c(Cl)cccc1NC(=O)Nc1nnc(N2CCCCCC2)s1
  miR-21 reporter: -3%

# Of the compounds above, two contain a COOH group.
miR-21 reporter,smiles
-6%,COc1ccc(C2(Nc3cccc(C(=O)O)c3C)C(=O)c3ccccc3C2=O)cc1
21%,C=Cc1ccc(Cn2c(C(=O)O)c(CNCc3cccs3)c3ccc(C)cc32)cc1
